# Source: PubChem
# E coli growth – E. coli growth inhibition, primary screen, OD600; Escherichia coli growth, 23 h; stronger effect = lower value; OD600 absorbance (concentration not given with the values); hit rate 0.21% among 330,000; AID 1053175, 2014;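 active means OD600 absorbance below the run mean of sample wells minus 3.6 SD, in any replicate, cut at about 0.56 in these data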;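 further: stock transfer was 300 nL into about 60 µL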
# The depositor's hits bear a star; & = joins results of further samples. This is a subset (hit frequency here may not be typical).
SMILES,E coli growth
C=CC1c2cc(C)ccc2N(S(=O)(=O)c2ccc(C)cc2)C(c2ccccc2C(F)(F)F)C1(C#N)C#N (stereo not given),0.695
O=C(C(Cc1ccccc1)NS(=O)(=O)c1ccc(Cl)cc1)N1CC[C@@]2(O)CCCCC2C1 (stereo not given in full),0.685
CC(=O)C(=CN(C)C)C(=O)Nc1ccc(Cl)cc1Cl,0.686
O=C(O)CCCC=CCC1C(O)CC(O)C1C=CC(O)COc1cccc(Cl)c1 (stereo not given),0.691
O=C(Nc1ccccc1)C1=CC(c2csc3ccccc23)CC(OCc2ccc(CO)cc2)O1 (stereo not given),0.665
C#CCOCCOCCOCCNc1nc(N2CCN(C(=O)CCCCCCCCCCNC(=O)Cn3cc(CCCCCN)nn3)CC2)nc(N2CCN(C(=O)CCCCCCCCCCNC(=O)C(CO)n3cc(CCCCCN)nn3)CC2)n1 (stereo not given),0.618
CCC(C)C(NC(=O)OC(C)(C)C)c1cn(C(Cc2cc3ccccc3[nH]2)C(=O)N2CCN(C(=O)OC(C)(C)C)CC2)nn1 (stereo not given),0.7
CC1CN(C(C)CO)C(=O)c2cc(NC(=O)NC3CCCCC3)ccc2OC1CN(C)C(=O)Nc1ccc(C(F)(F)F)cc1 (stereo not given),0.647
CC(NC(=O)c1nc[nH]c1C(=O)NC(CCCCN)C(=O)OC(C)(C)C)C(=O)OCc1ccccc1 (stereo not given),0.66
CCOC(=O)NC(=O)C(C#N)=Cc1ccccc1,0.732
CC(C)(Cc1ccccc1)[N+]([O-])=Cc1ccccc1,0.683
Cc1ccc2nc(Cl)c(C=NNC(=O)C3CC3c3ccccc3)cc2c1 (stereo not given),0.719
O=C(C1=CC(c2coc3ccccc3c2=O)CC(OCCCCO)O1)N1CCN(Cc2ccccc2)CC1 (stereo not given),0.649&0.668
COc1ccc(C2CC(=O)C=C(c3ccccc3Oc3ccccc3)C2)cc1 (stereo not given),0.733
Oc1cccc2ccc(C=Cc3ccc(Br)s3)nc12,0.709
CC1CN=C(Nc2ccccc2)N1CCC1CCCCC1 (stereo not given),0.683
CC(=O)CC(O)CC(=O)C1OC(=O)CCCCCCc2ccccc21 (stereo not given),0.659&0.712&0.69
CC1CN(C(C)CO)C(=O)Cc2cc(NC(=O)C3CC3)ccc2OC1CN(C)Cc1ccc(Oc2ccccc2)cc1 (stereo not given),0.677
Cc1ccc(CN2CC(=O)N3C4c5cc(Cl)ccc5OCC4C(c4ccccc4)[C@]3(C)C2=O)cc1 (stereo not given in full),0.682
C[C@]12CCC3c4ccc(O)cc4CCC3C1CCC2=O (stereo not given in full),0.696
O=C(COC(=O)C=Cc1ccccc1)Nc1cc(C(F)(F)F)ccc1N1CCOCC1,0.713
O=C(Nc1ccccc1)C1=CC(c2ccc3c(c2)OCO3)CC(OCCCCO)O1 (stereo not given),0.685&0.714
COc1cc(C=C2N=C(c3ccccc3)OC2=O)c(F)cc1OCc1ccccc1,0.703
Oc1ccc(CC2CNC(=S)N2CCc2cc(C(F)(F)F)cc(C(F)(F)F)c2)cc1 (stereo not given),0.661&0.68
COc1cc2c(cc1OC)C(=CC#N)NC(C)(C)C2,0.7
O=C1c2ccccc2C(=O)N1CCCCc1cn(CC2CCC(C3CCC(Cn4cc(CCCCN5C(=O)c6ccccc6C5=O)nn4)O3)O2)nn1 (stereo not given),0.677
CCCCC1CNC(=O)C(=O)N1CC(C)(C)C (stereo not given),0.644
CCCCCCC(=O)N1CC=CC(c2ccc(OC)cc2)N(Cc2ccc(F)cc2)C(=O)C1 (stereo not given),0.686
CCOC(=O)C(CCc1ccccc1)NC(C)C(=O)N1C(C(=O)O)CC2CCCC21 (stereo not given),0.687&0.635
CCN1CC2C3C(=O)N(C)C(=O)C3[C@](C)(C1=O)N2C(=O)c1ccc(F)cc1 (stereo not given in full),0.673
CC=CC(=O)N1CC2(CC(c3cccc(NC(=O)CC)c3)=NO2)CC1C(N)=O (stereo not given),0.686
CC(C)C(NC(=O)Nc1ccccc1F)C(=O)O (stereo not given),0.675
O=C(COC(=O)C=Cc1cccs1)NC(=O)Cc1ccccc1,0.714
COc1ccc(SCCN2CCC(C(C)(C)C)CCC2=O)cc1 (stereo not given),0.628
COC(=O)C1=CC(C(=O)OC)C2C3=C(C(=O)C2(C)C)C(C)n2c(=O)n(-c4ccccc4)c(=O)n2C3C1 (stereo not given),0.701
Cc1ccc(S(=O)(=O)N2C(c3ccc(Cl)cc3)CC=C(C(=O)O)C2c2ccc(Cl)cc2)cc1 (stereo not given),0.7
O=C(NCCNCCO)C1(C(F)(F)F)CC(=CCCO)CCCO1 (stereo not given),0.696
Cc1cc(C(=O)NC(c2ccccc2)[C@@]2(C)CC2C(C)C(=O)Nc2ccc3ccccc3c2)no1 (stereo not given in full),0.679
CC(C)CC1CN=C(Nc2ccccc2)N1CCC1CCCC1 (stereo not given),0.656
O=C1CC2c3c(cccc3CN1Cc1ccccc1Cl)CC(O)C2O (stereo not given),0.69
CCc1nc(NC(Cc2c[nH]c3ccccc23)C(=O)O)c2oc3ccccc3c2n1 (stereo not given),0.691
COc1ccc(NC(=O)N(C)CC2Oc3ccc(NS(=O)(=O)c4ccc(F)cc4)cc3C(=O)N(C(C)CO)CC2C)cc1 (stereo not given),0.674
CC1C(=O)OC2CC34C5CC(C(C)(C)C)C36C(OC(=O)C6O)OC4(C(=O)O5)[C@]21O (stereo not given in full),0.712
Cc1cc(C=C2NC(=O)NC2=O)c(C)n1-c1sc2c(c1C#N)CCCC2,0.692
CC(C)CC(=O)OC(C)(C)C1Cc2c(ccc3ccc(=O)oc23)O1 (stereo not given),0.678
CC(=O)n1cc(C2C=C(C(=O)N3CCN(Cc4ccccc4)CC3)OC(OCc3ccc(CO)cc3)C2)c2ccccc21 (stereo not given),0.695&0.709
O=C1C=C(c2ccc3[nH]ccc3c2)CC(c2ccc(Cl)cc2)C1 (stereo not given),0.727
CCOC1OC(C(=O)NC2CC2)=CC(C2CCCCC2)C1CCCO (stereo not given),0.715&0.685
COc1ccc(C2CC(=O)C=C(c3ccc(Cl)cc3C)C2)cc1 (stereo not given),0.683
O=C(NCC1CCCO1)C(=Cc1ccc(Cl)cc1)NC(=O)c1ccccc1 (stereo not given),0.706
Cc1cc(Cl)ccc1C1=CC(=O)CC(c2ccc(F)cc2)C1 (stereo not given),0.676
CCCCCCNC(=O)NC(C(=O)NCCCC1CN2C(=NCC2Cc2ccccc2)N1CCc1cccc(OC)c1)C(C)C (stereo not given),0.649
CCOC(=O)c1[nH]c(C)c(C(O)=C2C(=O)C(=O)N(CCN(C)C)C2c2ccco2)c1C (stereo not given),0.664
CC(CO)NC(=O)C(C)C1C[C@@]1(C)C(NC(=O)OCc1ccccc1)c1ccccc1 (stereo not given in full),0.654
CC(C(=O)O)C1C[C@@]1(C)C(NC(=O)OCc1ccccc1)c1ccccc1 (stereo not given in full),0.711
COc1cc2c(cc1OC)C1Cc3cc4c(cc3C(C2)N1C)OCO4 (stereo not given),0.691
CCCCN1CCC2C=CCC(C(=O)N3CCN(c4ccccc4)CC3)C2C1=O (stereo not given),0.672
CCN1C(=O)C2C(c3ccc(-c4cccc(Cl)c4)c(OC)c3)N[C@@](C)(C(=O)OC)C2C1=O (stereo not given in full),0.701
CCC1=C(OC(=O)N(CC)CC)N2C(=O)OC(=NCCc3c[nH]c4ccccc34)[C@]2(C)C2C1=CCC1C(=O)N(C)C(=O)C12 (stereo not given in full),0.685
CN(NC(=O)C=CC(=O)O)c1ncc(C(F)(F)F)cc1Cl,0.704

# 4 of the compounds above, field by field:
smiles: O=C1c2ccccc2C(=O)N1CCCCc1cn(CC2CCC(C3CCC(Cn4cc(CCCCN5C(=O)c6ccccc6C5=O)nn4)O3)O2)nn1 (stereo not given)
  E coli growth = 0.677

smiles: CCCCC1CNC(=O)C(=O)N1CC(C)(C)C (stereo not given)
  E coli growth = 0.644

smiles: CCCCCCC(=O)N1CC=CC(c2ccc(OC)cc2)N(Cc2ccc(F)cc2)C(=O)C1 (stereo not given)
  E coli growth = 0.686

smiles: CCOC(=O)C(CCc1ccccc1)NC(C)C(=O)N1C(C(=O)O)CC2CCCC21 (stereo not given)
  E coli growth = 0.687&0.635

# Next compounds:
SMILES,E coli growth
Cc1nc2ccccn2c1C(O)=C1C(=O)C(=O)N(CCCn2ccnc2)C1c1ccncc1 (stereo not given),0.702
OCCC1CC(O)C(O)[C@]2(CCc3ccccc3CO2)O1 (stereo not given in full),0.696&0.656&0.724
CCC1C(O)CC2CCN3C(=O)CCCC1C23 (stereo not given),0.681
CC[N+](CC)(CC)CCOc1ccc(C=Cc2ccccc2)cc1,0.639
Cc1ccc2c(c1)C1C(CO2)C(c2ccccc2)[C@@]2(C)C(=O)NC(C)C(=O)N12 (stereo not given in full),0.701
CCC(C)Sc1ccc(C2N[C@@](Cc3ccccc3)(C(=O)OC)C3C(=O)N(C)C(=O)C23)cc1 (stereo not given in full),0.7
COC(=O)[C@@]1(Cc2ccc(F)cc2)C2c3cc(C(=O)N4CCCC4)n(CCCNc4ncc(C(F)(F)F)cc4Cl)c3CC2CN1C(=O)c1ccccc1 (stereo not given in full),0.706
C=C1CCN(C(C)C(=O)OCc2ccc(C)cc2)S(=O)(=O)c2ccccc21 (stereo not given),0.688
CC1(C)c2[nH]c3ccccc3c2CC2C(=O)N(Cc3ccccc3F)C(=O)N21 (stereo not given),0.664&0.653
CC1CN(C(C)CO)C(=O)c2cccc(NS(=O)(=O)c3cn(C)cn3)c2OC1CN(C)Cc1ccncc1 (stereo not given),0.679
CCOC(=O)CC1c2ccc(C(F)(F)F)cc2S(=O)(=O)N1Cc1ccccc1 (stereo not given),0.671
CCCC(C#Cc1cc(OC)cc(OC)c1)=C1c2ccccc2C(=O)N1c1ccccc1,0.641
CC(OC(=O)c1[nH]cnc1C(=O)N1CCN(C(=O)OC(C)(C)C)CC1)c1ccccc1 (stereo not given),0.673&0.676
COC(=O)[C@@]12CCCCN1C(c1ccc(-c3cccc(Cl)c3)c(OC)c1)C1C(=O)N(C)C(=O)C12 (stereo not given in full),0.753
CN1CC2C3C(=O)N(Cc4ccccc4)C(=O)C3[C@](C)(C1=O)N2C(=O)c1ccccc1 (stereo not given in full),0.651
C#CCOCCOCCOCCNc1nc(N2CCN(C(=O)C(CCCCN)n3cc(C(N)CC(C)C)nn3)CC2)nc(N2CCN(C(=O)C(Cc3ccc(O)cc3)n3cc(C(N)CC(C)C)nn3)CC2)n1 (stereo not given),0.664
COc1ccccc1C1C(c2cccc(Cl)c2)=NN(c2ccc(Br)cc2)C1C(=O)N1CCOC1=O (stereo not given),0.692
Cc1noc(C)c1NC(=O)N(C)CC1Oc2c(NS(=O)(=O)c3cccs3)cccc2C(=O)N(C(C)CO)CC1C (stereo not given),0.711
O=C1CCN(CCc2ccccc2)CCN1C(CSc1ccccc1)Cc1ccccc1 (stereo not given),0.637
CC(C)(O)C(O)COc1c2occc2cc2ccc(=O)oc12 (stereo not given),0.67

# The last two entries of the section before come first, to join the parts.
SMILES,E coli growth
O=C1CCN(CCc2ccccc2)CCN1C(CSc1ccccc1)Cc1ccccc1 (stereo not given),0.637
CC(C)(O)C(O)COc1c2occc2cc2ccc(=O)oc12 (stereo not given),0.67
CCOC1OC(C(=O)NCc2ccccc2)=CC(C2CCCCC2)C1CCCO (stereo not given),0.698&0.677
CC1CN(C(C)CO)C(=O)c2cc(NC(=O)CCC(F)(F)F)ccc2OC1CN(C)S(=O)(=O)c1ccccc1 (stereo not given),0.649
CSc1ccc(C2=CC(=O)CC(c3ccc(F)cc3)C2)cc1 (stereo not given),0.687
O=C(NC1CC1)C1=CC(c2csc3ccccc23)CC(OCc2ccc(CO)cc2)O1 (stereo not given),0.695
CCCCC1CC1C(NC(=O)c1ccccc1)c1ccccc1C(F)(F)F (stereo not given),0.675
C#CCNC(=O)C1=CC(c2ccc(Br)cc2)CC(OCc2ccc(CO)cc2)O1 (stereo not given),0.676&0.693
COC(=O)C=CCC(C)OS(N)(=O)=O (stereo not given),0.683
O=C1C=C(c2ccc(O)cc2)CC(c2ccc3c(c2)OCO3)C1 (stereo not given),0.653
CC(C)CCN1C(Nc2ccccc2)=NCC1CC(C)C (stereo not given),0.695
COc1ccc(C2CC(c3ccccc3)Oc3cc(C)cc(C)c32)cc1 (stereo not given),0.71&0.719
COc1cc2c(c(OC)c1OC)-c1c(cc3c(c1OC)OCO3)CC(C)[C@@](C)(O)C2 (stereo not given in full),0.674
CN(C)C=C(C(=O)c1ccc(F)cc1)S(=O)(=O)c1ccc(F)cc1,0.711
O=C(O)COc1c(Cl)cc(C=C2NC(=O)NC2=O)cc1Br,0.708
CN1CCN(C(=O)C2=CC(c3ccc4c(c3)OCO4)CC(OCc3ccc(CO)cc3)O2)CC1 (stereo not given),0.66&0.701
